MT1-MMP act inh – blockers of MT1-MMP proenzyme processing, primary screen, HT1080 RFP-PRO-GFP cells, GFP/RFP fluorescence | Matrix metalloproteinase-14 (Homo sapiens), P50281 | GFP/RFP ratio fluorescence, overnight; percent of plate control window, DMSO zero | GFP/RFP ratio change, % at 20 µM | 360,000 tested, 0.061% active | AID 651647, 2012;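 active = GFP/RFP ratio change of at least 30% with cell ATP level not reduced by more than half and red fluorescence within 50% of control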; also: strong numbers were not always called active
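Assay system: HT1080 RFP-PRO-GFP cells. Benchmarks: DMSO vehicle wells and RFP-L50D-GFP reporter cell wells. Times: overnight cell settling, then overnight compound exposure, 37 °C, 5% CO2. Compound: 20 µM single dose, 1% DMSO. Read-out basis: GFP/RFP fluorescence ratio.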
HIV Env fusion – inhibitors of HIV-1 Env-driven cell-cell fusion, primary screen, HeLa-JRFL effector, CEM21 target cells, luciferase | inhibition, % at 12.3 µM | 360,000 tested, 1.1% active;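 active = mean replicate inhibition score of at least 50 and every replicate individually at or above 50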;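 also: 0% = plate neutral controls and 100% = maraviroc near 300 nM; one replicate is shown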
Rce1 inhib – yeast Rce1p protease inhibitors, primary screen, biochemical, fluorescence, cell-free homogeneous; CAAX prenyl protease 2 (Saccharomyces cerevisiae (strain ATCC 204508 / S288c)), Q03530; yeast membranes, quenched prenylated peptide cleavage fluorescence; calls only; 290,000 tested, 0.27% active;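 active = fall in fluorescence gain of 50% or more versus controls, with final raw signal at or below 3038400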;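 also: plate controls were neutral control wells for no effect and wells lacking membranes for full effect; tested at 10 µM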
CSC inhib – cancer stem cell viability inhibitors, primary screen, luminescence | cancer stem cell-like cells viability | inhibition, % at 7.5 µM | 300,000 tested, 1.1% active | AID 2717, 2010;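 active = mean at 75% or more and at least half the replicates too; tested in HMLE shEcad cells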;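 also: 0% = median of negative and 100% = median of positive control wells; the first replicate is given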
eIF4H inh – human eIF4H binding inhibitors, primary screen, translation initiation inhibitor project, biochemical, uHTS, fluorescence polarization | Eukaryotic translation initiation factor 4H (Homo sapiens), Q15056 | eIF4H fluorescence polarization binding assay | inhibition, % at 35 µM | 290,000 tested, 0.94% active;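 active = 50% or more with normal probe brightness, or confirmed in later tests; about a fifth of its hits are not listed in these tables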;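 also: calls also rest on retests at 20 µM and on dose response follow-up; 0% = protein and probe with vehicle and 100% = probe without protein; strong numbers were not always called active; many hits fall short of the cut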
UUG fidelity – modulators of yeast start codon fidelity, primary screen, whole organism, S. cerevisiae, single point, plate reader; S. cerevisiae UUG-firefly luciferase reporter, luminescence/redox ratio; 350,000 tested, 0.13% active; activity score, % at 18.7 µM;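 active = replicate mean at a twofold rise or more, about +100% in these data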;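 also: firefly luciferase made from a UUG start codon reports start codon fidelity; reporter light over untreated wells divided by growth signal over untreated wells; some hits fall short of that in this replicate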
PABP FP inh – PABP poly(A) RNA binding inhibitors, primary screen, biochemical, fluorescence polarization, uHTS. inhibition, % at 35 µM. AID 2014, 2009. Polyadenylate-binding protein 1 (Homo sapiens), P11940. 290,000 tested, 1% active;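 active = 50% or more with normal probe brightness, or confirmed in later tests; about a fifth of its hits are not listed in these tables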;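 also: calls also rest on retests at 20 µM and on dose response follow-up; controls were probe without protein and protein plus probe with vehicle; some compounds called inactive have numbers as strong as hits; many hits fall short of the cut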
Target sequence (P11940 whole entry, looked up): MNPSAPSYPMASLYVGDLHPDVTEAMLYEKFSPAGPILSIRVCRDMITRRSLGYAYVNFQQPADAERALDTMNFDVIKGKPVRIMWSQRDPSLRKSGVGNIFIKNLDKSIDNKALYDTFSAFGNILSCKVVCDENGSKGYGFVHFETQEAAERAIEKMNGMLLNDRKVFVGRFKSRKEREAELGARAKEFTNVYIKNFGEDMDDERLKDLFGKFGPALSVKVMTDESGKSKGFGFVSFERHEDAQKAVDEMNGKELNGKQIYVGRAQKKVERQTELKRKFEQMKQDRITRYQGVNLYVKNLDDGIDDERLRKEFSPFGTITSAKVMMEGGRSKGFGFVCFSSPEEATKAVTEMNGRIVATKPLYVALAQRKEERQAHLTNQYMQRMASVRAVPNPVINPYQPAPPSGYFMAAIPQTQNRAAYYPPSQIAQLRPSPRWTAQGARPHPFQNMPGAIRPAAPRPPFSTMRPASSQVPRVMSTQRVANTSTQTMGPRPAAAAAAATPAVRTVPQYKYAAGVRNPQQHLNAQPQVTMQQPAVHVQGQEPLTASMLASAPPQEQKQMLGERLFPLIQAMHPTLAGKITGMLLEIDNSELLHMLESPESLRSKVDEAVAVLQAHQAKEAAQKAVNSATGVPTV
eIF4H inh retest – also measured in eIF4H inh; calls as there; inhibition, %; compound at 20 µM; confirmation average;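 mean of two retest wells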
PABP FP inh retest – also measured in PABP FP inh; calls as there; inhibition, %; compound at 20 µM; confirmation repeats;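 mean of two retest wells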
MT1-MMP act inh RFP – second read-out of MT1-MMP act inh, no call of its own (marks repeat the call); RFP signal change, %; measured here: RFP expression control read;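 0 = vehicle wells; hits needed this value within 50% of zero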
Numbers without * were called inactive; i = inactive; . = no result given.

SMILES | MT1-MMP act inh | MT1-MMP act inh RFP | HIV Env fusion | Rce1 inhib | CSC inhib | eIF4H inh | UUG fidelity | PABP FP inh | others
CC(C)CCNC(=O)c1ccc(-c2ccccc2)cc1 | . | . | . | i | -17 | -2 | . | 0
CCCCOC(=O)Nc1nnc(/C=C/c2ccc(OC)cc2)s1 | 1 | 0 | 3 | i | -12 | -1 | . | -1
O=Cc1c[nH]c2ccc(S(=O)(=O)N3CCCCC3)cc12 | 2 | -2 | -15 | . | . | . | -16 | .
Cc1ccc2c(c1)c1c(c(=O)n(-c3ccccc3C)c(=O)n1CC(=O)NCC1CCCO1)n2C (centres undefined) | -2 | -1 | 2 | i | -8 | -7 | 0 | 1
COc1cccc(OC)c1C(=O)NC(=S)Nc1ccc(N2CCOCC2)c(Cl)c1 | -3 | -10 | 17 | i | -7 | -8 | -8 | 2
CCCC(C)c1nnc(NC(=O)CCS(=O)(=O)Cc2ccccc2)s1 (centres undefined) | 0 | 0 | 8 | i | -10 | -16 | -8 | 2
Cc1cc(C)n(-c2nc3c(c(=O)n(C)c(=O)n3C)n2C)n1 | -1 | 1 | . | i | -21 | 6 | . | -14
COc1ccc(Cn2c(=O)[nH]c3cc(C(=O)N4CCN(c5ccccn5)CC4)ccc3c2=O)cc1 | 2 | -3 | 2 | i | -9 | 13 | -11 | -5
O=C(O)C1C(c2ccccc2)C(C(=O)Oc2ccccc2)C1c1ccccc1 (centres undefined) | 5 | 3 | -15 | i | -11 | -10 | -10 | 3
CCNC(=S)N1CCN(CC(=O)Nc2ccc(OC)cc2)CC1 | -1 | -2 | 3 | i | -5 | 1 | . | 27
CN1C(=O)/C(=C/c2cccc(Cl)c2)Sc2ccc(C(=O)NCc3cccnc3)cc21 | 3 | -9 | 13 | i | 96* | -1 | -12 | 7
COc1ccc(N2CCN(S(=O)(=O)CCNC(=O)COc3ccc(Cl)cc3)CC2)cc1 | 0 | -4 | -8 | i | -17 | -18 | -8 | -3
CC(=O)Nc1ccc2nc(NC(=O)COc3ccc(C)cc3)sc2c1 | -1 | -3 | -9 | i | 0 | -10 | . | -6
O=C(Nc1cccc(-n2cnnn2)c1)c1cnccc1Cl | -9 | 4 | -10 | i | -17 | -9 | -11 | -5
COc1ccccc1-c1ocnc1C(=O)N1CCN(C(=O)C(c2ccccc2)c2ccccc2)CC1 | -3 | -3 | -46 | i | -6 | 1 | 10 | 11
COc1ccccc1NC(=O)CSc1nnc(-c2ccc(C)cc2)o1 | 4 | 7 | -308 | i | 7 | 0 | 2 | 4
CC1=C(C(=O)N2CCOCC2)C(c2c(C)cc(C)cc2C)NC(=S)N1 (centres undefined) | -3 | 0 | -18 | i | -2 | -2 | -19 | -10
COCCN(Cc1cc2cc(C)cc(C)c2nc1Cl)C(=O)Nc1ccccc1 | -1 | -10 | . | i | 64 | -18 | . | 2
O=C(COc1ccc(C(=O)c2ccccc2)cc1)Nc1ncccc1O | 0 | -10 | -4 | i | 10 | 9 | -6 | 5
O=C(NCc1ccco1)C1CCCN1C(=O)Nc1ccccc1[N+](=O)[O-] (centres undefined) | 2 | 3 | -1 | i | -14 | -10 | -4 | 12
COc1cccc(C(=O)Nc2nc(-c3ccncc3)cs2)c1 | 2 | -3 | 23 | i | 13 | -15 | . | -3
CCC(C)Nc1nc(Cl)nc(NCCOc2ccccc2)n1 (centres undefined) | -4 | -7 | . | i | -1 | 8 | -7 | 4
COc1ccc(N(C)S(=O)(=O)c2cccc(C(=O)Nc3cccc(C(=O)NC4CC4)c3)c2)cc1 | 4 | -4 | 9 | . | . | . | -2 | .
Cn1c(=O)[nH]c(=O)c2c1nc(Br)n2CC(O)COCc1ccccc1 (centres undefined) | 5 | 2 | . | i | -21 | -2 | 5 | 3
COc1ccc(S(=O)(=O)N2CCC(C(=O)NCc3ccccn3)CC2)cc1OC | 3 | 1 | . | i | -21 | -1 | -9 | 2

Looked up by compound from the entries so far (3):
SMILES | MT1-MMP act inh | MT1-MMP act inh RFP | HIV Env fusion | Rce1 inhib | CSC inhib | eIF4H inh | UUG fidelity | PABP FP inh | others
Cc1cc(C)n(-c2nc3c(c(=O)n(C)c(=O)n3C)n2C)n1 | -1 | 1 | . | i | -21 | 6 | . | -14
Cc1ccc2c(c1)c1c(c(=O)n(-c3ccccc3C)c(=O)n1CC(=O)NCC1CCCO1)n2C (centres undefined) | -2 | -1 | 2 | i | -8 | -7 | 0 | 1
COc1ccccc1-c1ocnc1C(=O)N1CCN(C(=O)C(c2ccccc2)c2ccccc2)CC1 | -3 | -3 | -46 | i | -6 | 1 | 10 | 11

Returning to the listing; the 4 compounds before the break are reprinted first.
SMILES | MT1-MMP act inh | MT1-MMP act inh RFP | HIV Env fusion | Rce1 inhib | CSC inhib | eIF4H inh | UUG fidelity | PABP FP inh | others
CCC(C)Nc1nc(Cl)nc(NCCOc2ccccc2)n1 (centres undefined) | -4 | -7 | . | i | -1 | 8 | -7 | 4
COc1ccc(N(C)S(=O)(=O)c2cccc(C(=O)Nc3cccc(C(=O)NC4CC4)c3)c2)cc1 | 4 | -4 | 9 | . | . | . | -2 | .
Cn1c(=O)[nH]c(=O)c2c1nc(Br)n2CC(O)COCc1ccccc1 (centres undefined) | 5 | 2 | . | i | -21 | -2 | 5 | 3
COc1ccc(S(=O)(=O)N2CCC(C(=O)NCc3ccccn3)CC2)cc1OC | 3 | 1 | . | i | -21 | -1 | -9 | 2
CC(=O)NC(=S)c1c(N)n(Cc2ccccc2)c(=O)n(C)c1=O | . | . | . | i | -14 | -11 | . | -3
COc1ccc2nc(SCC(=O)NCC3CCCO3)c(C#N)cc2c1 (centres undefined) | -3 | -3 | -14 | . | 0 | -8 | -9 | 12
COCCCN(C(=O)c1ccc(-c2ccc(C(C)=O)cc2)o1)c1c(N)n(CC(C)C)c(=O)[nH]c1=O | -5 | 0 | -9 | . | . | . | 1 | .
CNCc1ccccc1Sc1cc(O)ccc1O | -14 | 3 | 5 | . | . | 48 | . | -9
CCC(=O)Oc1ccc(C2N(C(=O)CC)CCN2S(=O)(=O)c2ccc(C)cc2)cc1OC (centres undefined) | -3 | 0 | -14 | i | -16 | 4 | -4 | -10
COc1cc(NS(=O)(=O)c2ccc(N/C=C\C(=O)c3ccc(F)cc3)cc2)nc(OC)n1 | 5 | 6 | 4 | i | -9 | 1 | -14 | 3
COc1ccc(C(=O)NCc2nnc(SCC(=O)N3CCc4ccccc43)o2)cc1OC | 2 | 3 | . | i | -8 | -3 | -5 | 4
CC(=O)Nc1ccc(NC(=O)C2CCCN2C(=O)Nc2ccccc2[N+](=O)[O-])cc1 (centres undefined) | 15 | 14 | -4 | i | 0 | -3 | -9 | -5
CC(C)(Cc1ccc(O)cc1)NC(=O)CC(=O)N=Nc1c(O)[nH]c2cc(Br)ccc12 | 3 | 1 | -19 | i | -3 | 1 | 1 | 3
Cc1ccc(C(=O)Nc2ccn(Cc3ccc(F)cc3)n2)o1 | 0 | 4 | -9 | i | 13 | 1 | -19 | -3
COc1ccc(CCNC(=O)c2cc(S(=O)(=O)N3CCCCC3)ccc2Cl)cc1 | 2 | -6 | 4 | . | . | . | -10 | .
CN1C(=O)C(CC(=O)O)S/C1=N\N=C\c1ccc(O)cc1O (centres undefined) | 2 | 2 | 3 | i | -13 | -10 | 7 | -9
CN(C)CCN(C)C1CN(C2CCCC2)S(=O)(=O)C1 (centres undefined) | 4 | 2 | -42 | . | . | . | -14 | .
CCn1nc(Cc2cccc3ccccc23)c(C#N)c1N | 4 | 3 | 15 | i | 5 | . | -10 | .
CC1CN(C(=O)C2(C)CC2(Cl)Cl)CC(C)O1 (centres undefined) | 2 | 7 | 23 | i | 0 | 8 | . | 6
Cc1ccc(C(=O)n2nc(-c3cccnc3)nc2N)cc1 | 2 | 2 | 9 | i | -7 | -2 | -17 | 6
Nc1ccc(-n2cc(-c3ccccc3)[nH]c2=S)cc1 | -3 | -4 | 5 | i | -2 | -2 | -27 | 7
O=C(Cn1cnc2cc([N+](=O)[O-])ccc2c1=O)Nc1ccc(Br)cc1 | -4 | -3 | 15 | i | -3 | 9 | -7 | 7
Cc1ccccc1Cn1ccc(NC(=O)c2cc3ncc(Br)cn3n2)n1 | 1 | 5 | 1 | i | 4 | 53* | . | -11 | eIF4H inh retest=76*;PABP FP inh retest=36
CCc1nc2ccccc2nc1N1CCN(S(=O)(=O)c2ccccc2)CC1 | -5 | -6 | 14 | i | -7 | -2 | 13 | 3
CCC(=O)c1cc(F)c(N2CCN(C(=O)c3ccco3)CC2)cc1C | -7 | -5 | -5 | i | 2 | -11 | 0 | -6
COc1ccc2nc(NC(=O)CS(=O)(=O)c3ccc(C)cc3)sc2c1 | 0 | -2 | -4 | i | 1 | -1 | 13 | -7
Cc1cccc(NC(=O)CCCc2ccccc2)c1C | -2 | -2 | -38 | i | -4 | 0 | -19 | -8
CCOC(=O)c1ccoc1CSCC(=O)N1CCN(S(=O)(=O)c2ccc(C)cc2)CC1 | -2 | 3 | 56* | i | -3 | 2 | -5 | -1
CN(C)c1cccc(NC(=O)c2ccc(-c3ccc(F)c(F)c3)c3ccoc23)c1 | -2 | -8 | -38 | . | . | . | -3 | .
Carrying on:
SMILES | MT1-MMP act inh | MT1-MMP act inh RFP | HIV Env fusion | Rce1 inhib | CSC inhib | eIF4H inh | UUG fidelity | PABP FP inh | others
COC(=O)C1CCN(C(=O)COC(=O)CNC(=O)c2ccc(Cl)cc2Cl)CC1 | -1 | 1 | . | . | -15 | . | -13 | .
O=Cc1cc2c(cc1[B-](F)(F)F)OCO2 | -5 | 3 | 8 | . | . | . | 7 | .
CC1CCCN(S(=O)(=O)c2cc3c4c(c2)C(C)C(=O)N4CCC3)C1 (centres undefined) | -1 | -1 | 3 | i | -3 | . | 0 | .
COc1ccc(NC(=O)[C@H](C)NC(=O)C2CCN(S(=O)(=O)c3ccc(OC)cc3)CC2)cc1 | 0 | 4 | -22 | i | -9 | -14 | -17 | -3
Cc1ccc(S(=O)(=O)N(C)c2ccc(C(=O)NCc3ccccn3)cc2)cc1 | -4 | -4 | 0 | i | 7 | -3 | . | -10
COc1ccc(CN2CCNC(=O)C2CC(=O)N(Cc2nccn2C)C(C)C)c(OC)c1 (centres undefined) | 3 | 9 | -14 | i | -7 | -9 | 15 | 14
NC(=O)CSc1cn(Cc2ccc(F)cc2)c2ccccc12 | 2 | 1 | 15 | i | -5 | -11 | -22 | -6
CC(=NNS(=O)(=O)c1ccc(C)cc1)c1ccccc1 | -9 | 1 | -13 | . | . | . | -4 | .
O=C(CSc1nc2ccccc2o1)Nc1nc2ccc(Br)cc2s1 | 1 | -8 | . | i | 8 | -7 | -9 | -3
COC(=O)c1sccc1NC(=O)COc1ccc(F)cc1Cl | -3 | -2 | -26 | i | 7 | 1 | -16 | -7
O=C(OCC(=O)N1CCc2ccccc21)c1ccccn1 | -10 | 1 | -13 | i | -9 | -6 | . | 4
CC(=O)Oc1ccc(-c2nc(-c3cccnc3)no2)cc1 | -6 | -1 | . | i | 32 | 8 | . | 2
COc1ccc(OC)c(C2SCCN2S(=O)(=O)c2cccc(C(F)(F)F)c2)c1 (centres undefined) | -6 | -15 | . | i | 11 | 4 | -14 | -2

Assay outcomes from PubChem.

This is a subset, so the mix of outcomes need not match the whole.
